GIRK2 act = activators of human GIRK2 potassium channels; G protein-activated inward rectifier potassium channel 2 (Homo sapiens), P48051; HEK293-GIRK2 thallium flux, Thallos fluorescence; calls only for hits at 25 µM; actives 0.05% (n = 63,000);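 active = among the strongest 0.2% of first-round signals and kept after retests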;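 also: first round at about 10 µM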
Target sequence (P48051 whole entry, looked up): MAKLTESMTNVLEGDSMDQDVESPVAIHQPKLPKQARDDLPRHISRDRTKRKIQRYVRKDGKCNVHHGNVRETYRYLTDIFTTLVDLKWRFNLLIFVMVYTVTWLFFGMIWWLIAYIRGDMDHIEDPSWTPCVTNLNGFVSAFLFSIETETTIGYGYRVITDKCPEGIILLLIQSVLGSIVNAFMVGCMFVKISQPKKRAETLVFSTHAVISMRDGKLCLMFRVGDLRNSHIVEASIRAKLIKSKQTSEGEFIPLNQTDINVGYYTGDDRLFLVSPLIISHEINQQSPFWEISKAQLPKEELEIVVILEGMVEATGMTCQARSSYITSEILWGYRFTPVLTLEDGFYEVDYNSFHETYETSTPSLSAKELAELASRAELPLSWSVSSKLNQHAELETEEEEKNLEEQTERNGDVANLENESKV
Calls only; i = inactive.

#	smiles	GIRK2 act
1	CNC(=O)Cc1csc(NC(=O)c2ccc(NC(=O)c3cn(C)nc3OC)cc2)n1	i
2	O=C(NCc1ccccn1)c1ccc(Cn2c(=O)[nH]c3ccccc3c2=O)cc1	i
3	COCCCNC(=O)c1cc2c(=O)n3ccccc3nc2n(C)c1=N	i
4	O=C(NCCn1cnc(-c2ccccc2)cc1=O)c1ccc2ncsc2c1	i
5	NC(=O)c1nnn(-c2ccc(NS(=O)(=O)c3ccc(Cl)s3)cc2)n1	i
6	O=C(NCC1CCN(C(=O)Oc2ccccc2)CC1)c1ccccc1Cl	i
7	O=C(CSc1nnc(N2CCN(C(=O)COc3ccccc3)CC2)s1)NCc1ccco1	i
8	O=C(CSc1nnc(N2CCOCC2)c2ccccc12)N1CCN(c2ccc(F)cc2)CC1	i
9	N#Cc1ccccc1CSC1=NNC2C3CC(c4ccc(Cl)cc4)NN3C=CN12 (centres undefined)	i
10	CCOC(=O)N1CCC(NC(=O)CN2CCN(c3ccc(C)cc3)C2=O)CC1	i
11	O=C(Nc1cccs1)N1CCCC(c2nnc(-c3ccccc3F)s2)C1 (centres undefined)	i
12	COc1ccc(CN(c2ccc(F)cc2)S(=O)(=O)c2cccn3cnnc23)cc1	i
13	O=C(NCCOc1ccccc1)NCC1CCN(Cc2cccs2)CC1	i
14	COC(=O)CC1=CC(SCC(=O)Nc2ccc(S(C)(=O)=O)cc2)=Nc2ccccc2N1	i
15	O=C(CN1CCC(Cn2cnc3ccccc32)CC1)N1CCN(c2ccccc2)CC1	i
16	Cc1cccc(NC(=O)C(=O)NCCc2ccc3c(c2)CCCN3C)c1	i
17	O=C(CN1CCN(Cc2nc(-c3cccs3)cs2)CC1)Nc1ccccc1	i
18	NC(=O)CSc1ncc(-c2cccc([N+](=O)[O-])c2)n1-c1ccccc1	i
19	COc1ccc(-c2csc3c(=O)[nH]c(N4CCN(c5ccccc5Cl)CC4)nc23)cc1	i
20	COc1ccc(Cl)cc1NC(=O)c1cc2c(=O)n(C)c(=O)n(C)c2s1	i
21	Cc1cc(CCNC(=O)c2ccccc2F)on1	i
22	Nc1ccc(O)c(C(=O)O)c1	i
23	Cc1noc(C)c1CC(=O)NCCn1nc(-c2cccs2)n(C2CC2)c1=O	i
24	Cn1cc(-c2ccco2)nc1CCNC(=O)/C=C/c1ccccc1	i
25	COc1ccccc1N1CCCn2c1nc1c2c(=O)n(Cc2ccc(F)cc2)c(=O)n1C	i
26	CN(C)C(CNC(=O)C(=O)Nc1cccnc1)c1ccc2c(c1)CCO2 (centres undefined)	i
27	O=C(/C=C/c1ccco1)NCC1(O)CCOc2ccccc21 (centres undefined)	i
28	O=C(COc1ccccc1)N1CCCC(c2nnc(-c3ccc4c(c3)OCO4)o2)C1 (centres undefined)	i
29	COCCN(Cc1ccsc1)C(=O)c1ccco1	i
30	COc1ccccc1-c1cc(C(=O)NCC2CCS(=O)(=O)C2)[nH]n1 (centres undefined)	i
31	CCCCNC(=O)c1cccc(-n2ccnc2SCC(=O)Nc2ccccc2OC)c1	i
32	COc1cccc2c(=O)c3c([nH]c12)CCN(CC(=O)NCc1ccccc1Cl)C3	i
33	COc1ccccc1-c1nnc(C2CCN(C(=O)c3cccs3)CC2)s1	i
34	O=C(Nc1cccc(OC(F)F)c1)C(c1ccccc1)n1cccc1 (centres undefined)	i
35	COC(=O)c1ccc(CSc2nnc(Cn3ccc(=O)[nH]c3=O)o2)cc1	i
36	C=CCn1c(=O)c2c(nc3n2CCCN3c2ccc(OCC)cc2)n(C)c1=O	i
37	CN(Cc1cnc2nc(N)nc(N)c2n1)c1ccc(C(=O)N[C@@H](CCC(=O)O)C(=O)O)cc1	i
38	O=C(Cn1ccc2ccccc21)N1CCN(c2ccc(C(F)(F)F)cn2)CC1	i
39	O=C(NCC1CCN(Cc2cccs2)CC1)Nc1cccs1	i
40	CCc1ccc(N2C(=O)CC(Sc3ccccc3C(=O)OC)C2=O)cc1 (centres undefined)	i
41	Cn1c(NCCO)nc2c1c(=O)n(Cc1ccccc1Cl)c(=O)n2C	i
42	CCCCOc1ccc(C(=O)N2CCN(c3cc(Nc4ccccn4)ncn3)CC2)cc1	i
43	CCC(CC)C(=O)Nc1nonc1-c1ccc(OC)cc1	i
44	COC(=O)c1ccccc1NC(=O)Cn1nc2c(Oc3cccc(C)c3C)nccn2c1=O	i
45	Cc1ccc(C(=O)Nc2ccc(-c3nc4ccccc4s3)cc2)cc1S(=O)(=O)N1CCOCC1	i
46	CSc1nn(Cc2ccc(C)cc2)c(N)c1S(=O)(=O)c1ccccc1	i
47	O=C(NCc1ccc2c(c1)OCO2)C1CCN(c2cc(Oc3ccccc3)ncn2)CC1	i
48	CCCCN1C(SCC(=O)NCCCc2ccccc2)=NS(=O)(=O)c2ccccc21	i
49	Cc1cccc(NC(=O)CSc2nccn2-c2cccc(C(=O)NCc3cccs3)c2)c1C	i
50	O=C(Nc1nc(C(=O)NCc2ccc(OC(F)(F)F)cc2)co1)c1ccsc1	i
51	Cc1ccc(CSc2nc(CC(=O)NCc3nnc(C)o3)cs2)cc1	i
52	O=C(c1cnn(-c2ccccc2)n1)N1CCN(CC(O)C2CC2)CC1 (centres undefined)	i
53	COc1ccccc1COc1cc(NC(=O)CSc2ncccn2)ncn1	i
54	CCc1ccccc1NC(=O)Nc1c(C)nc(N2CCCC2)nc1C	i
55	Cc1sc(NC(=O)c2ccc(Cl)c(Cl)c2)nc1-c1ccc2c(c1)NC(=O)CO2	i
56	O=C(Cn1cnc2c(oc3ccccc32)c1=O)Nc1cccc(Br)c1	i
57	Cc1c(C(=O)Nc2ccc(CC(=O)NC3CC3)cc2)cnn1-c1ccccc1	i
58	Cc1cc(C(=O)N2CCOCC2)n(CC(=O)NCCC2=CCCCC2)n1	i
59	Cc1ccc(-c2ccc3nn(CC(=O)Nc4ccc(Br)cc4)c(=O)n3n2)cc1C	i
60	Cc1cc2c(SCC(=O)NCC3CCCO3)ncnc2s1 (centres undefined)	i

Remaining list, next part
#	smiles	GIRK2 act
61	CCN(CC)C(=O)c1cnc2nc(C)ccc2c1Nc1ccc2c(c1)OCCO2	i
62	COc1ccc(C)cc1NC(=O)C(=O)NCC(C)(O)c1ccco1 (centres undefined)	i
63	Cc1nc(SCc2ccccc2F)[nH]c(=O)c1CC(=O)Nc1ccc2c(c1)OCCO2	i
64	Cc1nc(-n2nc(-c3cccs3)cc2NC(=O)c2ccc(F)cc2F)[nH]c(=O)c1C	i
65	COc1ccc(OC)c(NC(=O)Nc2ccc(Nc3cc(-n4ccnc4)ncn3)cc2)c1	i
66	O=C(COc1ccc2ccccc2c1)NCc1n[nH]c(=O)c2ccccc12	i
67	Cc1ccc(-c2noc(Cn3nc(-c4ccccc4)ccc3=O)n2)cc1	i
68	C=CC[C@@H]1/C=C(\C)C[C@H](C)C[C@H](OC)[C@H]2O[C@@](O)(C(=O)C(=O)N3CCCC[C@H]3C(=O)O[C@H](/C(C)=C/[C@@H]3CC[C@@H](O)[C@H](OC)C3)[C@H](C)[C@@H](O)CC1=O)[C@H](C)C[C@@H]2OC	i
69	O=C(Nc1ccc2c(c1)OCO2)c1ccc(Cl)c(S(=O)(=O)N2CCCCC2)c1	i
70	Cc1cc(OCC(=O)Nc2ccc(C)c(C)c2)nc(N2CCN(c3ccccc3)CC2)n1	i
71	CC1CCN(c2cc(NC(=O)c3cc(-c4cccs4)nn3C)ncn2)CC1	i
72	Cc1nc2ccc3nc(NC(=O)c4cc(-c5ccco5)on4)sc3c2s1	i
73	CCCCOc1ccccc1-c1cc(C(=O)Nc2cc(Cl)c(OC)cc2OC)[nH]n1	i
74	COc1ccccc1CNC(=O)c1nnn(-c2ccc(F)cc2)c1-c1ccncc1	i
75	O=c1c(-c2ccccc2)coc2c3c(ccc12)OCN(Cc1cccs1)C3	i
76	COc1ccc(OC)c(S(=O)(=O)NCC2(c3ccc(F)cc3)CC2)c1	i
77	CCOCCn1c(=O)c2c(nc3n(-c4ccc(C(=O)OCC)cc4)c(C)cn23)n(C)c1=O	i
78	O=C(Cn1cccc(S(=O)(=O)N2CCCCCC2)c1=O)NCC1CCCO1 (centres undefined)	i
79	CCOc1ccc(NC(=O)Nc2cccc(-c3ccc4nnc(C)n4n3)c2)cc1	i
80	COc1ccc(-c2nc(C#N)c(N3CCN(C(=O)c4ccccc4C)CC3)o2)cc1	i
81	COc1ccc(CNC(=O)CCn2cnc3c([nH]c4cc(OC)c(OC)cc43)c2=O)cc1	i
82	COc1cc([N+](=O)[O-])cc2sc(NC(=O)CCCS(=O)(=O)c3ccc(F)cc3)nc12	i
83	Cc1nc(N2CCN(C(=O)c3c[nH]c4ccccc34)CC2)cc(-n2cccn2)n1	i
84	CCOc1c(C)cc(S(=O)(=O)N2CCN(C)CC2)c(C)c1C	i
85	COc1cc(NC(=O)NCCC(O)c2cccc3ccccc23)cc(OC)c1 (centres undefined)	i
86	Cn1c(NCCCO)nc2c1c(=O)n(Cc1ccccc1Cl)c(=O)n2C	i
87	Cc1nc(-c2ccco2)sc1CNC(=O)Cc1ccc(Br)cc1	i
88	NC(=O)c1ccc(NC(=O)CCCSc2ccc(NC(=O)c3ccco3)nn2)cc1	i
89	COc1ccc(S(=O)(=O)NC(C)(C)CO)cc1N(C)S(=O)(=O)c1ccc(C)cc1	i
90	CC(=O)Nc1ccc(S(=O)(=O)N(C)CC(O)Cn2c3ccccc3c3ccccc32)cc1 (centres undefined)	i
91	Cc1ncc([N+](=O)[O-])n1CCOC(=O)c1cc2cc([N+](=O)[O-])ccc2oc1=O	i
92	Cc1ccc(NC(=O)C(C)Oc2cccc(Br)c2)c([N+](=O)[O-])c1 (centres undefined)	i
93	COc1ccc2cc(C(=O)NCCc3cc(C)no3)[nH]c2c1	i
94	O=C(Nc1nc(CCC(=O)N2CCN(C(=O)c3ccco3)CC2)cs1)c1cccs1	i
95	COc1ccc(CNC(=O)C(=O)Nc2c(C)cc(C)cc2C)cc1	i
96	COCCn1c(=O)c2c(nc3n(C4CCCCC4)c(C)cn23)n(C)c1=O	i

Entries above containing a CF3 group:
#	smiles	GIRK2 act
38	O=C(Cn1ccc2ccccc21)N1CCN(c2ccc(C(F)(F)F)cn2)CC1	i
50	O=C(Nc1nc(C(=O)NCc2ccc(OC(F)(F)F)cc2)co1)c1ccsc1	i

Carrying on:
#	smiles	GIRK2 act
97	CCCCc1ccc(S(=O)(=O)c2cnc(SCC(=O)Nc3cc(F)ccc3C)[nH]c2=O)cc1	i
98	COc1ccc(-c2nnc(NC(=O)c3ccccc3C)o2)cc1	i
99	Cc1cc(CNC(=O)C(=O)NC(C)c2ccccc2)c(C)o1 (centres undefined)	i
100	CCCCCC(=O)CC[C@@H]1[C@@H](C/C=C\CCCC(=O)O)[C@@H](O)C[C@H]1O	i
101	COc1ccc(C2C(C#N)=C(SC)NC3=C2C(=O)CC(C)(C)C3)cc1OC (centres undefined)	i
102	COc1cc(COCC2CCN(Cc3ccc(F)c(F)c3)CC2)cc(OC)c1	i
103	COc1ccc(S(=O)(=O)Nc2ccc(F)cc2)cc1N(C)S(=O)(=O)c1ccc(Cl)cc1	i
104	CCOc1ccc(-c2[nH]ncc2Oc2ccccc2OC)c(O)c1	i
105	CNC(=O)Cn1cnc2c1c(=O)[nH]c(=O)n2C	i
106	O=C(CNC(=O)C1CCCCC1)Nc1nc2ccccc2s1	i
107	COc1ccc(C(F)(F)F)cc1NC(=O)C(C)n1nc(-n2nc(C)cc2C)ccc1=O (centres undefined)	i
108	COc1cc(/C=C2\SC(=S)N(c3cccc(Br)c3)C2=O)cc(OC)c1OC	i

Entries by screen from above:
Entries 103 to 108 in GIRK2 act, in turn: i, i, i, i, i, i

Returning to the listing, starting 5 compounds before the break.
#	smiles	GIRK2 act
104	CCOc1ccc(-c2[nH]ncc2Oc2ccccc2OC)c(O)c1	i
105	CNC(=O)Cn1cnc2c1c(=O)[nH]c(=O)n2C	i
106	O=C(CNC(=O)C1CCCCC1)Nc1nc2ccccc2s1	i
107	COc1ccc(C(F)(F)F)cc1NC(=O)C(C)n1nc(-n2nc(C)cc2C)ccc1=O (centres undefined)	i
108	COc1cc(/C=C2\SC(=S)N(c3cccc(Br)c3)C2=O)cc(OC)c1OC	i
109	Cc1nc(Nc2ccc(NC(=O)c3ccc(Br)o3)cc2)cc(-n2ccnc2)n1	i
110	CCc1nc2sc(C(c3ccccc3Cl)N3CCCC3)c(O)n2n1 (centres undefined)	i
111	COc1ccc(N2CC(C(=O)NC3CC(O)C(CO)C3)CC2=O)cc1 (centres undefined)	i
112	O=C(NCCC1=CCCCC1)C(=O)Nc1ccc(F)c(F)c1	i
113	CC[C@@]1(O)C(=O)OCc2c1cc1n(c2=O)Cc2cc3c(CN(C)C)c(O)ccc3nc2-1	i
114	COc1ccc(CN2COc3ccc4c(c3C2)O/C(=C\c2cccc(OC)c2OC)C4=O)cc1OC	i
115	COc1cc2cc(CNc3ccccc3)c(=O)n(CC(=O)Nc3ccccc3)c2cc1OC	i
116	NC(=O)Cn1c(-c2ccc(F)cc2)nc2c(c1=O)CCN(Cc1ccccc1)C2	i
117	COC(=O)c1ccc2c(=O)n(CCC(=O)NCc3ccco3)c(=S)[nH]c2c1	i
118	Cc1noc(C2(NC(=O)C3CC(=O)N(c4cccc(F)c4)C3)CCCCC2)n1 (centres undefined)	i
119	Cc1nc(C)c(CC(=O)N2CCN(c3ccccc3F)CC2)s1	i
120	O=C(O)CC1=C/C(=C\c2ccc(SC(F)(F)F)cc2)c2ccc(F)cc21	i
121	CCC(=O)Nc1ccc(S(=O)(=O)N2CCN(c3cc(N4CCCC4)ncn3)CC2)cc1	i
122	Cn1c(=O)[nH]c(=O)c2c1nc(N1CCCCC1)n2CCCOc1ccccc1	i
123	Cc1ccc(N2C=C(C#N)S(=O)(=O)c3ccccc32)cc1F	i
124	CCN(CC)C(=O)c1cnc2nc(C)ccc2c1Nc1ccc(S(N)(=O)=O)cc1	i
125	O=C(CSCc1ccccc1)N1CC(c2nc(-c3cccs3)no2)C1	i
126	Cc1ccc(N(C(=O)c2cc(=O)c3ccccc3o2)C(=O)N2CCCCC2)cc1	i

Three structures already listed, arranged by formula weight, low to high:
#	smiles	GIRK2 act
122	Cn1c(=O)[nH]c(=O)c2c1nc(N1CCCCC1)n2CCCOc1ccccc1	i
124	CCN(CC)C(=O)c1cnc2nc(C)ccc2c1Nc1ccc(S(N)(=O)=O)cc1	i
121	CCC(=O)Nc1ccc(S(=O)(=O)N2CCN(c3cc(N4CCCC4)ncn3)CC2)cc1	i

A portion of the library; the hit share may differ from the screen's.
